Assay outcomes from PubChem BioAssay.
Rce1 inh: blocks yeast Ras-converting enzyme. 290,000 tested, 0.27% active. Q03530. calls only. AID 2563. yeast membranes, quenched prenylated peptide cleavage fluorescence;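 active = fall in fluorescence gain of 50% or more versus controls, with final raw signal at or below 3038400; inconclusive = same 50% fall but final raw signal above 3038400; inactive = fall in fluorescence gain under 50%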;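 note: plate controls were neutral control wells for no effect and wells lacking membranes for full effect; tested at 10 µM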
Target sequence (Q03530 whole entry, looked up): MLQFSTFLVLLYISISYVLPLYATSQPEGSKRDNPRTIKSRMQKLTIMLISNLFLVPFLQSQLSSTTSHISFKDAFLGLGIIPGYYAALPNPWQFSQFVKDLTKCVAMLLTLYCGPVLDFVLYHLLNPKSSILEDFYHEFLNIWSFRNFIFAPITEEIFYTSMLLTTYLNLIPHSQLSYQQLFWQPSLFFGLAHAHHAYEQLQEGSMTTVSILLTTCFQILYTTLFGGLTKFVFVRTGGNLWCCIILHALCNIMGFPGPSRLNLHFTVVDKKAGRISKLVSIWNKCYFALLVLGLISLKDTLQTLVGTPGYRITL
UUG fidelity: modulators of start codon recognition fidelity in yeast. S. cerevisiae UUG-firefly luciferase reporter, luminescence/redox ratio. activity score, % at 18.7 µM. 350,000 tested, 0.13% active. AID 602363;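 active = replicate mean at a twofold rise or more, about +100% in these data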;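 note: firefly luciferase made from a UUG start codon reports start codon fidelity; reporter light over untreated wells divided by growth signal over untreated wells; some hits fall short of that in this replicate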
eIF4H FP inh: inhibitors of RNA binding by human eIF4H. Q15056. eIF4H fluorescence polarization binding assay. inhibition, % at 35 µM. 290,000 tested, 0.94% active. AID 2012;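 active = 50% or more with normal probe brightness, or confirmed in later tests; inconclusive = above 50% with abnormal brightness, or retests that disagree; inactive = below 50% or failed in later tests; about a fifth of its hits are not listed in these tables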;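 note: calls also rest on retests at 20 µM and on dose response follow-up; 0% = protein and probe with vehicle and 100% = probe without protein; strong numbers were not always called active; many hits fall short of the cut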
CSC inhib: cancer stem cell inhibition; inhibition, % at 7.5 µM; cancer stem cell-like cells viability, luminescence; 300,000 tested, 1.1% active;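 active = mean at 75% or more and at least half the replicates too; inconclusive = mean and replicates disagree; tested in HMLE shEcad cells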;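 note: 0% = median of negative and 100% = median of positive control wells; the first replicate is given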
HIV Env fusion: HIV envelope-mediated fusion inhibition | HeLa-JRFL Env/CEM21 cell fusion, luciferase | inhibition, % at 12.3 µM | 360,000 tested, 1.1% active | AID 651610;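 active = mean replicate inhibition score of at least 50 and every replicate individually at or above 50; inconclusive = only one of the two criteria met; inactive = mean below 50 and not all replicates reaching 50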;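 note: 0% = plate neutral controls and 100% = maraviroc near 300 nM; one replicate is shown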
MT1-MMP act inh: MT1-MMP (human) activation inhibition. AID 651647. HT1080 RFP-PRO-GFP cells, GFP/RFP ratio fluorescence, overnight; percent of plate control window, DMSO zero. 360,000 tested, 0.061% active. P50281. GFP/RFP ratio change, % at 20 µM;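 active = GFP/RFP ratio change of at least 30% with cell ATP level not reduced by more than half and red fluorescence within 50% of control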; note: strong numbers were not always called active
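Assay system: RFP-PRO-GFP reporter HT1080 cells; read-out basis: GFP/RFP fluorescence ratio; benchmarks: DMSO wells and RFP-L50D-GFP cells; doses: 20 µM single dose, 1% DMSO; schedule: overnight cell settling, then overnight compound exposure, 37 °C, 5% CO2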
PABP FP inh: PABP-poly(A) binding inhibition. P11940. PABP-poly(A) RNA binding, fluorescence polarization. inhibition, % at 35 µM. 290,000 tested, 1% active. AID 2014;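 active = 50% or more with normal probe brightness, or confirmed in later tests; inconclusive = above 50% with abnormal brightness, or retests that disagree; inactive = below 50% or failed in later tests; about a fifth of its hits are not listed in these tables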;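 note: calls also rest on retests at 20 µM and on dose response follow-up; controls were probe without protein and protein plus probe with vehicle; some compounds called inactive have numbers as strong as hits; many hits fall short of the cut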
Target sequence (P11940 whole entry, looked up): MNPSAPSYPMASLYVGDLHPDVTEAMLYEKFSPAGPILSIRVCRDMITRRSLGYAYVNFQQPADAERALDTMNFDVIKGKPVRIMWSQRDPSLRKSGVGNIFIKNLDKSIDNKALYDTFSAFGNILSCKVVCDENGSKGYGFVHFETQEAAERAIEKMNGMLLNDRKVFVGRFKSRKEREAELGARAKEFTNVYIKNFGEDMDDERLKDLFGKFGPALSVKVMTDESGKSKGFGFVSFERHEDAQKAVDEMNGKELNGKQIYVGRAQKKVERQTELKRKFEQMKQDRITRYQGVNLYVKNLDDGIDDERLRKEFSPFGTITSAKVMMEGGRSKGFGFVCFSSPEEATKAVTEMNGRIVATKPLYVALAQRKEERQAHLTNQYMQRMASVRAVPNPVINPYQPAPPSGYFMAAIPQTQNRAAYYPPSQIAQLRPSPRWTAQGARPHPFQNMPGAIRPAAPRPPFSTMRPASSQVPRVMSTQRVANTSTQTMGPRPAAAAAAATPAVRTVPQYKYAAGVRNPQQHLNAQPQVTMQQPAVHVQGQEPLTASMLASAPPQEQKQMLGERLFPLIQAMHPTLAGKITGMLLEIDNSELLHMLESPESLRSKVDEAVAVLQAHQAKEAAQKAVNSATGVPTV
MT1-MMP act inh RFP: also measured in MT1-MMP act inh; calls as there; RFP signal change, %; measured here: RFP expression control read;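 0 = vehicle wells; hits needed this value within 50% of zero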
* hit, by the source's call; i = inactive; ? = inconclusive; nt = not tested or not shown; & = joins results of further samples.

The opening 13 entries, to show the layout:
SMILES	Rce1 inh	UUG fidelity	eIF4H FP inh	CSC inhib	HIV Env fusion	MT1-MMP act inh	MT1-MMP act inh RFP	PABP FP inh
CC1Sc2ccc(S(=O)(=O)N3CCC(C(=O)NCc4ccco4)CC3)cc2NC1=O (stereo unspecified)	i	-4	10	-7	-6	5	-6	-5
Cc1ccc(Cl)cc1Nc1nc(-c2sc(NC(=O)c3ccco3)nc2C)cs1	i	-23	-5	63	33	2	2	0
Cc1cc(C)nc(N/N=C/c2ccccc2OCc2ccc([N+](=O)[O-])cc2)n1	i	-19	-4	-9	-23	4	-8	10
Cn1cccc1C(=O)C(=O)Nc1ccccc1C(F)(F)F	i	nt	-8	5	-41	3	3	-67
COc1cccc(-c2c(NC(C)=O)n(C)c3ccccc3c2=O)c1	i	-18	2	-2	0	-3	-4	5
O=C(NC(=S)Nc1ccc(CN2CCOCC2)cc1)c1ccc(-c2ccc(Cl)cc2)o1	i	nt	3	8	3	nt	nt	1
CN(Cc1cc(=O)n2ccsc2n1)Cc1nc2ccccc2c(=O)[nH]1	i	14	21	-1	-24	1	7	0
COc1ccccc1NC(=O)c1cn(C)c(=O)c2cc(OC)c(OC)cc12	i	20	-1	8	nt	13	13	-13
Cc1ccc(C(=O)Nc2ncccc2C)o1	nt	-30	nt	nt	-3	2	2	nt
CC(=O)C1=CCC(c2ccccc2)N(S(=O)(=O)c2ccc(Cl)cc2)C1 (stereo unspecified)	nt	-10	nt	nt	3	3	-1	nt
COc1cc2c(cc1NC(=S)Nc1cccc(C)c1)oc1ccccc12	i	nt	-11	22	-9	-1	-3	-3
CN1CCN(c2ncnc3c2c(-c2ccccc2)cn3-c2ccc(F)cc2)CC1	i	nt	-6	23	14	-5	-4	-11
CCOc1ccc(CCNC(=O)COC(=O)CCC(=O)c2cccs2)cc1OCC	i	5	-17	-21	nt	2	1	-10

Results, repeating the preview:
SMILES	Rce1 inh	UUG fidelity	eIF4H FP inh	CSC inhib	HIV Env fusion	MT1-MMP act inh	MT1-MMP act inh RFP	PABP FP inh
CC1Sc2ccc(S(=O)(=O)N3CCC(C(=O)NCc4ccco4)CC3)cc2NC1=O (stereo unspecified)	i	-4	10	-7	-6	5	-6	-5
Cc1ccc(Cl)cc1Nc1nc(-c2sc(NC(=O)c3ccco3)nc2C)cs1	i	-23	-5	63	33	2	2	0
Cc1cc(C)nc(N/N=C/c2ccccc2OCc2ccc([N+](=O)[O-])cc2)n1	i	-19	-4	-9	-23	4	-8	10
Cn1cccc1C(=O)C(=O)Nc1ccccc1C(F)(F)F	i	nt	-8	5	-41	3	3	-67
COc1cccc(-c2c(NC(C)=O)n(C)c3ccccc3c2=O)c1	i	-18	2	-2	0	-3	-4	5
O=C(NC(=S)Nc1ccc(CN2CCOCC2)cc1)c1ccc(-c2ccc(Cl)cc2)o1	i	nt	3	8	3	nt	nt	1
CN(Cc1cc(=O)n2ccsc2n1)Cc1nc2ccccc2c(=O)[nH]1	i	14	21	-1	-24	1	7	0
COc1ccccc1NC(=O)c1cn(C)c(=O)c2cc(OC)c(OC)cc12	i	20	-1	8	nt	13	13	-13
Cc1ccc(C(=O)Nc2ncccc2C)o1	nt	-30	nt	nt	-3	2	2	nt
CC(=O)C1=CCC(c2ccccc2)N(S(=O)(=O)c2ccc(Cl)cc2)C1 (stereo unspecified)	nt	-10	nt	nt	3	3	-1	nt
COc1cc2c(cc1NC(=S)Nc1cccc(C)c1)oc1ccccc12	i	nt	-11	22	-9	-1	-3	-3
CN1CCN(c2ncnc3c2c(-c2ccccc2)cn3-c2ccc(F)cc2)CC1	i	nt	-6	23	14	-5	-4	-11
CCOc1ccc(CCNC(=O)COC(=O)CCC(=O)c2cccs2)cc1OCC	i	5	-17	-21	nt	2	1	-10
CCCCNC(=S)N1CCN(c2ccc(C(C)=O)cc2)CC1	i	nt	-5	7	-4	3	-7	-11
CCC(=O)NC(=S)Nc1ccc(N2CCN(C(=O)c3ccc(Cl)cc3)CC2)cc1	nt	nt	4	32	19	2	-8	5
COc1ccc(/C(=C\Nc2ccc(C)c(C)c2)C(C)=O)cc1OC	i	nt	4	-11	-15	4	2	9
COc1ccccc1NC(=O)c1ccc(Br)o1	i	-18	-7	27	-2	-2	0	3
Cc1cc(N2CCOCC2)nc2ccc(Cl)cc12	i	nt	-2	4	-41	5	3	1
CCCCOc1ccc(NC(=S)Nc2cc(C)nc(SCCCC)n2)cc1	i	nt	-1	0	7	1	2	-5
CCC(=O)N1CCc2cc(S(=O)(=O)N3CCN(c4cc(C)ccc4C)CC3)ccc21	i	-18	-12	5	nt	2	-3	0
NC(=O)CC(NC(=O)Cc1ccc(Br)cc1)c1ccc(NCCN2CCCC2)c([N+](=O)[O-])c1 (stereo unspecified)	i	-9	-5	-6	-29	10	9	4
Cc1cccc(NC(=S)N(Cc2ccco2)C(C)c2cccs2)c1 (stereo unspecified)	i	-26	6	-10	11	0	3	-13
C=CCN1C(=NC(=O)CC)SC2CS(=O)(=O)CC21 (stereo unspecified)	i	-7	-12	-3	nt	-2	1	2
Fc1cnc(Cl)nc1N1CCN(c2ccccc2)CC1	i	nt	4	-5	-14	1	0	-4
Nc1nonc1-c1nc2ccccc2n1Cc1ccc(F)cc1	i	-12	4	62	5	4	4	-9
Cc1c(C)c2ccc(OCC(=O)N3CCC(C(=O)O)CC3)c(C)c2oc1=O	i	-16	-4	0	nt	10	7	8
Cc1ccccc1NC(=O)C1CCCN(c2nnc(N3CCCC3=O)s2)C1 (stereo unspecified)	i	-4	3	12	13	0	4	-4
COc1ccc(C(=O)NNC(=O)c2cc3cc([N+](=O)[O-])ccc3oc2=O)cc1OC	i	-8	14	-2	nt	3	-3	24
O=C(Nc1ccc2nc(-c3ccccn3)[nH]c2c1)C1CCCCC1	i	-23	8	-11	-121	11	14	-11
Cc1ccc(Oc2ccc(NC(=O)Cn3ccsc3=N)cc2)cc1	i	nt	-3	48	nt	0	-3	-28
COc1ccccc1C(=O)NCC(=O)NNC(=O)C1COc2ccccc2O1 (stereo unspecified)	i	-15	nt	-4	-13	0	3	nt
Cc1ccc(NC(=O)C2CC(c3ccc(F)cc3)=NO2)cc1 (stereo unspecified)	i	-21	-9	0	-43	7	3	-1
Cc1nc(C)c(C(=O)C2=C(O)C(=O)N(CCN3CCOCC3)C2c2cccs2)s1 (stereo unspecified)	i	5	-6	-7	4	-5	-1	8
COc1ccc(S(=O)(=O)N2CCOCC2)cc1NC(=O)COC(=O)C1COc2ccccc2O1 (stereo unspecified)	i	-26	10	10	1	1	6	1
C[C@@H]1CN([C@H](C)CO)C(=O)c2cc(-c3ccccc3)cnc2O[C@@H]1CN(C)C(=O)C1CCOCC1	nt	4&-9&-11	nt	nt	5	-2	2	nt
O=C(CSc1ccccn1)Nc1cccc(S(=O)(=O)N2CCCC2)c1	nt	-7	nt	2	2	-3	4	nt
CC(C)c1nc(NCC2CCCO2)c(C#N)c2c1COC(C)(C)C2 (stereo unspecified)	i	-2	-1	-5	-54	-1	-2	33
Cc1ccc(Nc2c(F)c(F)c(F)c(F)c2C(=O)O)c(C)c1	i	nt	4	0	18	-3	-2	-6
Cc1ccccc1OCCNC(=O)/C=C/c1ccccc1	i	6	0	8	20	3	6	15
CCc1nn(-c2ccccc2)c(N)c1-c1ccc(OC)c(OC)c1	i	-3	3	-3	nt	3	4	7
O=C(CSc1nnc(CNC(=O)c2c(F)cccc2Cl)o1)Nc1ccc2c(c1)OCO2	i	-10	10	-4	-3	3	3	4
O=C1C=C(c2ccccc2)OC(c2ccccc2)O1 (stereo unspecified)	i	-14	6	-9	2	2	2	12
O=C(Nc1ccc(Cl)cc1C(F)(F)F)c1ccccc1	i	nt	-5	8	nt	-2	-2	0
CC(C)Cc1ccc(C(C)C(=N)N)cc1 (stereo unspecified)	i	nt	-3	-2	-4	-3	-1	3
COc1cc2c(C(=O)N3CCN(C)CC3)c(C)n(-c3ccccc3)c2cc1Br	i	0	-7	-10	-78	1	-1	6
CC(=O)c1c(C(C)=O)c(C)n(-c2nc(-c3cccs3)c(C)s2)c1C	nt	-19	4	-13	nt	4	-4	9
COC(=O)c1cc(NC(=O)c2cc(-c3ccccc3Cl)oc2C(F)(F)F)ccc1N1CCOCC1	i	0	11	89*	-6	-7	-15	4
CCCSc1cc(N2CCCC2)nc(-c2ccccc2)n1	i	-14	-5	-1	nt	4	2	2
COc1ccc(/C=C/c2nc3ccccc3n2Cc2ccccc2OC)cc1	?	nt	-2	43	-223	-16	-13	3
CCN(CC)c1ccc(/C=C2\C(=N)N3N=C(CC(=O)N4CCOCC4)SC3=NC2=O)cc1	i	-1	?	-20	-54	-42	17	?
New compounds follow.
SMILES	Rce1 inh	UUG fidelity	eIF4H FP inh	CSC inhib	HIV Env fusion	MT1-MMP act inh	MT1-MMP act inh RFP	PABP FP inh
OC(COc1ccc2c(c1)CCC2)CN1CCN(c2cccc(Cl)c2)CC1 (stereo unspecified)	i	-4	-8	-9	nt	-2	7	-2
CCCNC(=O)C1(C)CCN(Cc2ccc(Cl)c(Cl)c2)C1 (stereo unspecified)	nt	6	nt	nt	-25	-2	2	nt
O=C(COc1ccccc1)N(Cc1ccco1)C1CCS(=O)(=O)C1 (stereo unspecified)	i	nt	-13	-12	nt	-3	-2	4
CC(=O)OCC(=O)[C@@]12OC(C)(C)O[C@@H]1C[C@H]1[C@@H]3C[C@H](F)C4=CC(=O)C=C[C@]4(C)[C@@]3(F)[C@@H](O)C[C@@]12C	i	1	7	-14	nt	nt	nt	-10
CC(C)c1ccc(NC(=O)c2csnn2)cc1	i	-40	3	5	nt	2	0	-9
CCCCN1C(=O)CN(CCc2ccccc2)C(=O)C1c1ccc(OC)cc1 (stereo unspecified)	i	-19	-6	-1	3	0	2	-2
COc1ccc(OC)c(NC(=O)NNC(=O)CCCOc2ccc(Cl)cc2C)c1	i	nt	-3	6	18	5	-1	-5
Cc1ccc(C(=O)N/C(=C\c2ccccc2)C(=O)NCc2ccncc2)cc1	i	-22	nt	-7	-35	1	1	nt
O=C(O)c1ccc(-n2nnnc2SCc2ccccc2F)cc1	i	-2	-15	-1	-19	-5	1	5
COc1cc(C(c2sc3nc(C)nn3c2O)N2CC(C)OC(C)C2)cc(OC)c1OC (stereo unspecified)	i	-14	0	-1	4	7	3	3
COc1ccc(C2CC(c3ccccc3OC(=O)/C=C/c3ccccc3)=NN2C(C)=O)cc1 (stereo unspecified)	i	-23	0	-1	-15	-2	-6	-2
Cc1ccc(NS(=O)(=O)c2ccc(N3CCN(c4ccc(O)cc4)CC3)c([N+](=O)[O-])c2)c(C)c1	i	-5	0	83*	nt	-6	-19	-14
COc1ccc(N(CC(=O)Nc2cccc(C(F)(F)F)c2)S(=O)(=O)c2c(C)[nH]c(=O)[nH]c2=O)cc1	i	-2	nt	-17	1	0	3	nt
Cc1csc(NC(=O)CSc2ccc(-c3ccccc3)nn2)n1	i	-15	-30	0	nt	11	2	-10
CCCCn1c(N)c(N(CCOC)C(=O)C2CCN(S(=O)(=O)c3ccc(C)cc3C)CC2)c(=O)[nH]c1=O	i	-7	nt	-12	22	3	1	nt
CCOC(=O)C(CC)Sc1ncnc2c1nnn2-c1ccc(F)cc1 (stereo unspecified)	i	-11	-10	-20	nt	1	1	-6
